WNV NS2B-NS3 inh – inhibitors of WNV NS2B-NS3 protease, primary screen, biochemical, fluorogenic substrate. Genome polyprotein (West Nile virus), P06935. fluorogenic substrate Ex360/Em465; hits give low values. z-score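 (tested at a level between 10 and 100 µM)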. 65,000 compounds, 0.18% hits. AID 577, 2007;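 active = z-score at -3 or under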;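 also: score is relative to mean and spread of the compound wells of a plate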
Target sequence (P06935 1371-1501 limits assumed): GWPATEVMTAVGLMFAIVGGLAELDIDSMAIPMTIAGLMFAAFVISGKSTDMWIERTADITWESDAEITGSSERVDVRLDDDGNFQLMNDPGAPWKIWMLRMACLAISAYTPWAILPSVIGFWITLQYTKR
Target sequence (P06935 1502-1679 limits assumed): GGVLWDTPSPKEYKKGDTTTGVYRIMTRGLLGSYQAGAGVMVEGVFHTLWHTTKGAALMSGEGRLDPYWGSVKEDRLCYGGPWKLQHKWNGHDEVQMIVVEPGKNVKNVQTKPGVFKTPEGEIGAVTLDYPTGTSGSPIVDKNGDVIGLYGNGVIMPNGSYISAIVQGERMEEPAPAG
MT1-MMP promoter – inhibitors of MT1-MMP promoter transcription, cell-based, luciferase reporter, luminescence (AID 618); MT1-MMP promoter luciferase reporter cells, luminescence; calls from a first round at 10 µM; hits with a dose series show EC50 in µM; 87,000 compounds, 0.62% hits;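 active = over half of the reporter light lost at 10 µM or EC50 under 50 µM; inactive = the rest and hits that failed the dose series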;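 also: actives suppress MT1-MMP promoter-driven transcription so potencies describe inhibitors; HT1080 fibrosarcoma cells; overnight exposure; toxic or luciferase-blocking compounds were not removed from the actives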
Hsc70 ATP site – Hsc70 inhibitors, probe displacement, primary screen, biochemical, fluorescence polarization (AID 568) | Hsc70 fluorescence polarization, probe displacement; higher % means a stronger effect; strong numbers were not always called active | displacement, % at 20 µM; hits with a dose series show IC50 in µM | 83,000 tested, under 10 active;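 active = displacement above 50% without optical interference and an IC50 on retest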;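 also: ATPase domain with a fluorescein-tagged ATP probe; 0% = vehicle and 100% = excess ADP; read after one hour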
* = called active by the depositor; i = inactive; nt = not tested or not shown; & = joins results of further samples. Only part of the results is shown; the hit share may differ from the screen's.

The first 3 records as a preview:
Sequence of screens: WNV NS2B-NS3 inh, MT1-MMP promoter, Hsc70 ATP site
> Cc1cc(C(=O)Cn2cncn2)c(C)n1CCc1ccc(F)cc1
→ -1.09, i, -3.2%
> Cc1ccc(-c2ccc(CCC(=O)O)n2NC(=O)c2ccco2)cc1
→ 0.18, i, 3.2%
> COc1ccc(CCNC(=O)CN2CCC(C(N)=O)CC2)cc1
→ 0.25, i, -0.6%

The listing, from the first entry:
Sequence of screens: WNV NS2B-NS3 inh, MT1-MMP promoter, Hsc70 ATP site
> Cc1cc(C(=O)Cn2cncn2)c(C)n1CCc1ccc(F)cc1
→ -1.09, i, -3.2%
> Cc1ccc(-c2ccc(CCC(=O)O)n2NC(=O)c2ccco2)cc1
→ 0.18, i, 3.2%
> COc1ccc(CCNC(=O)CN2CCC(C(N)=O)CC2)cc1
→ 0.25, i, -0.6%
> CCC(Sc1nc2ccccc2s1)C(=O)Nc1cc(C)on1 (stereo unspecified)
→ nt, i, 4.2%
> CCCCNC(=O)CCCCCn1c(=O)[nH]c2cc(OC)c(OC)cc2c1=O
→ 0.14, i, -0.7%
> COc1ccccc1-c1ccc(Nc2ccc(C(=O)N3CCOCC3)cc2)nn1
→ nt, i, -2.4%
> CC(NC(=O)CSc1nc2sc3c(c2c(=O)n1-c1ccccc1)CCCC3)c1ccccc1 (stereo unspecified)
→ nt, i, 2.7%
> CC(C)C(=O)Nc1ccc(NC(=O)c2cccc(F)c2)cn1
→ 0.91, i, 3.9%
> COCC(=O)Nc1cc(OC)c(Cl)cc1OC
→ 0.01, i, -1.8%
> CCOCCc1c(O)nc(SCC(=O)NCc2ccco2)[nH]c1=O
→ -1.3, i, 5.7%
> O=C(c1cncc(Br)c1)N1CCCc2ccccc21
→ 1.13, i, 8.9%
> COc1ccccc1N1CCN(C(=O)Cc2cccs2)CC1
→ 0.7, i, -4.7%
> Cn1c(Cc2ccccc2)nnc1SCC(=O)Nc1ccc2c(c1)OCCO2
→ 1.12, i, -9.9%
> Cc1cccc(C)c1NC(=O)CSc1nnc(Cn2nnc(-c3ccccc3)n2)n1-c1ccccc1
→ 2.78, i, -11.3%
> C/C(=N/Oc1nc(C)cc(C)n1)c1ccc(Br)cc1
→ nt, i, -4.3%
> COc1ccc(-n2c(C)cc(C(=O)Cn3nnc4ccccc4c3=O)c2C)cc1
→ 0.84, i, 1.7%
> O=C(O)c1c[nH]c2c(C(F)(F)F)cccc2c1=O
→ nt, i, 0.8%
> CCN(CC)S(=O)(=O)c1ccc(NC(=O)c2cccc3c2C(=O)N(CCOC)C3)cc1
→ -0.64, i, 1.7%
> Cn1nnnc1SCC(=O)N1CCOCC1
→ nt, i, -2.3%
> C=CCNC(=O)CN(c1ccc(OC)cc1OC)S(C)(=O)=O
→ nt, i, -0.6%

One compound at a time, from the list above.
COc1ccccc1-c1ccc(Nc2ccc(C(=O)N3CCOCC3)cc2)nn1 is listed with WNV NS2B-NS3 inh: nt; MT1-MMP promoter: i; Hsc70 ATP site: -2.4%
Cc1cc(C(=O)Cn2cncn2)c(C)n1CCc1ccc(F)cc1 is listed with WNV NS2B-NS3 inh: -1.09; MT1-MMP promoter: i; Hsc70 ATP site: -3.2%

The list goes on.
Sequence of screens: WNV NS2B-NS3 inh, MT1-MMP promoter, Hsc70 ATP site
> CC(C)NC(=O)CSc1nc2ccccc2n1CC(=O)N1CCc2ccccc21
→ -0.08, i, -3.9%
> CC1CCN(c2oc(-c3ccccc3Cl)nc2C#N)CC1
→ -0.55, i, -2.4%
> COc1ccc(C(=O)c2ccc(OC)cc2O)c(O)c1
→ -0.01, i, 1.0%
> CCC(=O)Nc1nc2ccc(S(C)(=O)=O)cc2s1
→ nt, i, -0.2%
> N#Cc1ccccc1NC1=CC(=O)CCC1
→ 1.82, i, -0.2%
> CCOC(=O)CSc1nc2c([nH]c3ccccc32)c(=O)n1C
→ -0.35, i, -1.3%
> CCC(=O)Nc1ccc2c(c1)C(=O)N(C1CCCCC1)C2=O
→ 1.34, i, 1.0%
> CCc1cc(=O)oc2cc(C)c(CN3CCCCC3)c(O)c12
→ -0.22, i, 2.2%
> CCOc1ccc2nc(SCC(=O)NC3CCS(=O)(=O)C3)[nH]c2c1 (stereo unspecified)
→ -0.92, i, -3.3%
> CN(C)c1ccc(C2C3C(=O)N(c4ccc(C(=O)O)cc4)C(=O)C3ON2c2ccccc2)cc1 (stereo unspecified)
→ 0.61, i, -3.6%
> c1ccc(NCn2cncn2)nc1
→ nt, i, -2.3%
> c1ccc2c(c1)CCCN2Cc1nnc2n1CCCCC2
→ -0.28, i, -0.5%
> CCC(C)NS(=O)(=O)c1ccc(OCC(=O)NCc2cccnc2)cc1 (stereo unspecified)
→ 1.07, i, 0.0%
> OC1(c2ccc3c(c2)OCO3)CCN(Cc2ccccn2)CC1
→ -0.31, i, 7.0%
> Cc1ccc(C(=O)Nc2ccccc2NC(=O)c2ccc(C)o2)o1
→ 2.54, i, 4.5%
> COc1cccc(CN2C(=O)CN(C3CCCCC3)C(=O)C2c2ccc(F)cc2)c1 (stereo unspecified)
→ -1.11, i, -1.3%
> O=C(O)c1cc(S(=O)(=O)N2CCOCC2)c(Sc2ccccn2)cc1Sc1ccccn1
→ 1.75, i, -1.3%
> CC1CCN(c2nc3c(c(=O)[nH]c(=O)n3C)n2Cc2ccccc2)CC1
→ -1.12, i, 2.3%
> Cc1cc(C)c2nc(SCC(=O)Nc3ccccc3N3CCOCC3)c(C#N)cc2c1
→ nt, i, -7.0%
> Cc1ccc2cc(C#N)c(N3CCCN(S(=O)(=O)c4ccccc4)CC3)nc2c1
→ 1.89, i, -19.0%
> CCc1cccc2c1NC(=O)[C@]21[C@@H]2C(=O)N(Cc3ccccc3)C(=O)[C@@H]2[C@@H]2CCCN21
→ 0.16, i, -9.2%
> Cc1oc(-c2ccc(F)cc2)cc1-c1nn2c(-c3ccco3)nnc2s1
→ -0.66, i, -32.4%
> O=C(NCCOC(=O)c1cccs1)c1cccnc1
→ 0.51, i, 4.0%
> O=C(CCCn1c(=S)[nH]c2cc3c(cc2c1=O)OCO3)N1CCc2ccccc2C1
→ -0.81, i, -2.0%
> CC1=NN(S(=O)(=O)c2ccc(F)cc2)C(=O)c2ccccc2O1
→ nt, i, 1.3%
> O=c1c(-c2ccco2)[n+]([O-])c2ccccc2n1OCc1ccccn1
→ -0.72, i, -5.1%
> O=C(CCCCn1c(=O)[nH]c2ccccc2c1=O)NC1CCN(Cc2ccccc2)CC1
→ 0.15, i, 1.0%
> NS(=O)(=O)c1ccc(NC(=O)C2CCCO2)cc1 (stereo unspecified)
→ nt, i, 2.3%
> O=C(CSc1nnc(-c2ccc(Cl)s2)o1)N1CCCc2ccccc21
→ -0.96, i, 3.1%
> CCCn1c(N2CCN(CC(=O)c3c(C)n(C)c4ccc(OC)cc34)CC2)nc2c1c(=O)[nH]c(=O)n2C
→ nt, i, 2.2%
> CCNc1nc(N)nc(Oc2ccc(OCCOc3ccccc3)nn2)n1
→ -0.68, i, 1.3%
> COc1ccccc1C(=O)Nc1nnc(-c2ccc3c(c2)CCCC3)o1
→ 0.24, i, 3.5%
> NC(Cc1ccc(Oc2ccc(O)cc2)cc1)C(=O)O (stereo unspecified)
→ 0.2, i, 5.8%
> Cc1ccc(NC(=O)COc2nc(C)cs2)cc1
→ 0.74, i, -4.8%
> Cc1ccccc1-n1nc2c(c1NC(=O)c1c(-c3ccccc3Cl)noc1C)CS(=O)(=O)C2
→ -1.39, i, -6.4%
> CCOC(=O)c1ccc(NS(=O)(=O)c2cc(C)ccc2OC)cc1
→ 0.05, i, 1.1%
> Cc1ccc(S(=O)(=O)N2CCN(C(=O)c3ccccc3)CC2)cc1
→ nt, i, 6.5%
> O=C(COc1ncnc2ccccc12)NCc1ccc2c(c1)OCO2
→ -0.34, i, -0.2%
> CCC(=O)Nc1cccc(NC(=O)CSc2nnnn2Cc2ccccc2)c1
→ 0.43, i, 2.9%
> CCNC(=O)CN(CCc1ccccc1)S(C)(=O)=O
→ 0.65, i, 4.7%

(more compounds)
canonical_smiles,WNV NS2B-NS3 inh,MT1-MMP promoter,Hsc70 ATP site
Cc1csc(NC(=O)CSc2nc3ccccc3s2)n1,nt,i,1.7%
O=C(c1ccco1)N1CCN=C1SCc1ccccc1Cl,-0.35,i,3.8%
Cc1oc2c(cc(NS(=O)(=O)c3cccs3)c3ccccc32)c1C(=O)OC(C)C,nt,i,1.3%
CCc1nnc(NC(=O)CSc2nnc(-c3ccccc3O)n2-c2ccc(C)cc2C)s1,2.49,i,0.8%
CC(C)(C)c1ccc(NC(=O)NCc2ccco2)cc1,-0.14,i,-0.1%
CCCC(=O)c1cn(CC(=O)OC)c2ccccc12,-0.16,i,1.3%
CCC(=O)N1CCCc2cc(S(=O)(=O)N3CCN(c4ncccn4)CC3)ccc21,0.07,i,0.4%
O=C(CCCC(=O)NCC1CCCO1)NCC1CCCO1 (stereo unspecified),-0.84,i,1.3%
COC(=O)c1cc(OC)c(OC)cc1NC(=O)CSc1nnc(-c2cccnc2)n1C,-0.65,i,1.0%
COc1ccc(CN(CC(=O)NC2CCCC2)C(=O)c2onc(C(N)=O)c2N)cc1,-0.07,i,2.9%
COc1ccc(N2CCN(C(=O)C3CCC(Cn4c(=S)[nH]c5ccccc5c4=O)CC3)CC2)cc1 (stereo unspecified),-1.14,i,-1.2%
COC(=O)c1ccccc1Nc1cc(C)nc2nc(C)nn12,-0.31,i,5.0%
COc1ccc(NS(=O)(=O)c2ccc(OC)c3ccccc23)cn1,-0.21,i,2.4%
COc1cc(OC)c2c(c1)OC(c1ccc(OC)c(OC)c1)C(O)C2=O (stereo unspecified),-0.66,i,2.9%
COc1ccc(OC)c(N=CC2=C(O)CC(C)(C)CC2=O)c1,2.16,i,-8.5%
Cc1ccc(OCCNS(=O)(=O)c2ccc(N3CCCC3=O)cc2)cc1,nt,i,-1.6%
O=S(=O)(Nc1cccnc1)c1cccs1,1.47,i,-0.1%
CC1CCc2nc(NC(=O)C3CC3)sc2C1 (stereo unspecified),nt,i,0.8%
CCOC(=O)Cn1cc(C(=O)c2cccs2)c2ccccc21,-0.47,i,3.6%
Fc1ccc(SCCc2ccncc2)cc1,nt,i,-6.7%&1.6%
COc1cc(/C=C(/C#N)c2ccc(F)cc2)ccc1OCc1ccc(C(=O)O)o1,1.64,i,1.2%
O=C(COc1ccc(S(=O)(=O)N2CCOCC2)cc1)Nc1ccc2c(c1)OCCO2,-0.89,i,2.0%
O=C(NCCc1c[nH]c2ccccc12)c1cnc2sccn2c1=O,-1.32,i,1.9%
COc1ccc(C2c3c(-c4ccccc4O)n[nH]c3C(=O)N2CCc2ccc(OC)c(OC)c2)cc1 (stereo unspecified),0.91,i,3.6%
O=C(COc1cccc(Oc2ccccc2)c1)Nc1ncccn1,-0.39,i,0.1%
COc1cc(C(C)=O)ccc1OCC(O)CNCC1(N2CCCCC2)CCCCC1 (stereo unspecified),-0.83,i,-1.4%
COc1ccc(N(CC(=O)N2c3ccccc3CC2C)S(=O)(=O)c2c(C)nn(C)c2C)cc1 (stereo unspecified),-0.83,i,6.1%
Cc1cc(C(=O)CSc2nnc(Cc3ccccc3)o2)c(C)n1Cc1ccc2c(c1)OCO2,-0.87,i,0.8%
O=C(NCC1CCCO1)C1CC(=O)N(C2CCCCCC2)C1 (stereo unspecified),1.44,i,-6.0%
C#CCN1C(=O)C(O)(CC(=O)c2ccc(OC)c(OC)c2)c2ccccc21 (stereo unspecified),0.16,i,-3.3%
Cc1ccc(/C=N/NC(=O)CC2N=C(Cc3ccccc3)NNC2=O)cc1 (stereo unspecified),nt,i,-1.6%
CCCOc1ccc(C(=O)N2CCCC2C(=O)O)cc1 (stereo unspecified),-0.87,i,4.3%
NCC12CC3CC(C1)CC(CN)(C3)C2,-1.76,i,4.1%
Cc1nc(CNS(=O)(=O)c2ccc(Oc3ccccc3)cc2)cs1,0.3,i,5.0%
CSCC[C@H](NC(=O)OC(C)(C)C)c1nnc(SCc2ccc(F)cc2)o1,-0.68,i,0.8%
CCOc1ccccc1NC(=O)N1CCC(NC(=O)c2ccccc2C)CC1,-0.86,i,3.2%
O=C(c1cccs1)N1CCN(C(=O)N2CCOCC2)CC1,-0.32,i,4.7%
O=C(CSc1nc(-c2ccco2)cc(C(F)(F)F)n1)NCCc1ccccc1,0.32,i,-2.2%
COc1ccc(OCC(O)CN(C2CCCCC2)C2CCCCC2)cc1 (stereo unspecified),nt,i,-1.1%
Cc1cc(C)c2oc(-c3ccc(Cl)c(NC(=O)c4ccc(C#N)cc4F)c3)nc2c1,-0.58,i,-18.7%
COc1cccc(CNn2c(-c3cccc(C)c3)nc3ccccc3c2=O)c1O,2.69,i,-1.8%
O=C(Cn1c(=O)oc2ccccc21)NC(=O)NCc1ccco1,0.36,i,-2.8%
CCOc1ccc(-c2nnc(N)s2)cc1,-0.98,i,3.2%
Nc1ccc(Cl)c(NC(=O)c2cccs2)c1,0.92,i,5.2%
Cc1cc2nnc(SC3CCCCN(C(=O)c4ccc(F)cc4)C3=O)n2c2ccccc12 (stereo unspecified),nt,i,-0.3%
Cc1cc(=O)n2[nH]c(-c3ccccc3Cl)cc2n1,1.51,i,0.2%
c1ccc(-c2ccccc2-c2nc(-c3ccncc3)no2)cc1,0.85,i,1.8%
Cc1cc(C(=O)NCCCC(=O)O)c(C)o1,nt,i,-1.1%
Cc1ccc(C)c(C(=O)NCCN(C)C)c1,2.01,i,0.1%
